NPYLR7 agonist: mosquito NPYLR7 agonism. activation, % at 10 µM. hit rate 0.15% among 270,000. HEK293T NPYLR7/Galpha15, GCaMP6s calcium fluorescence; in the data active means activation above about 40%;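 further: 0% = vehicle and 100% = reference agonist at the receptor; some compounds past the cut are filed as inactive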
NPYLR7 agonist max-min: recorded beside NPYLR7 agonist, whose call it bears; activation, %; measured here: Max-Min RFU normalised activation; some inactives read as strong as hits;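 span of the calcium signal over five minutes; 0% = vehicle and 100% = native peptide agonist; compound fluorescence can raise it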
Numbers without * were called inactive; & = joins results of further samples.

SMILES,NPYLR7 agonist,NPYLR7 agonist max-min
CC(C)(C)C(=O)NCCc1nc2ccccc2n1CC(=O)c1ccccc1,-1,5
CCOC(=O)C1=NNC2(CC(=O)N(c3c(C)cc(C)cc3C)C2=O)C1 (stereo not drawn),-1,9
COc1ccc(CC(=O)NCCOc2ccc3nnc(-c4ccccc4)n3n2)cc1,-12,-19
O=C1CCC2(CCCO2)CCN1Cc1nccs1 (stereo not drawn),8,4
CCOC(=O)c1nn(Cc2ccccc2)c2c1CN(C(=O)CN1CC(c3ccccc3)CC1=O)CC2 (stereo not drawn),-1&5,-5&-4
COc1cc(-c2cc(C(=O)NCc3c(C)cc(Cl)cc3Cl)c3ccccc3n2)cc(OC)c1OC,9,2
COCCCN=C1SCC(c2ccc(C(C)(C)C)cc2)=NN1C,5,2
COc1cc(CSc2nc3c(cnn3CCO)c(=O)[nH]2)cc(OC)c1,9,8
CC(=O)Nc1cccc(NC(=O)c2cn(C)c3c(=O)n(-c4ccccc4)c(=O)[nH]c23)c1,2,3
Cc1ccccc1Cc1c(C)nc(-c2ccccc2)nc1N1CCN(S(C)(=O)=O)CC1,22,32
O=C(CN1CCC2(CCCc3ccccc32)C1)Nc1cccc([N+](=O)[O-])c1 (stereo not drawn),2,2
Cc1cccc(N2NC3(CCC(C)CC3)NC2=S)c1C (stereo not drawn),-10,-14

Other records
SMILES,NPYLR7 agonist,NPYLR7 agonist max-min
O=C1c2cc(Cl)sc2C2(CCCCC2)C1Br (stereo not drawn),5,9
CC(C)NC(=O)C1CCN(C2CCN(Cc3ccc4cccc(F)c4n3)CC2)CC1,6,0
Cc1ccc(F)cc1NC(=O)CC1CN(Cc2ccccc2)CCO1 (stereo not drawn),2,-1
COc1cccc(C(=O)Nc2c3c(nn2-c2cccc(C)c2C)CSC3)c1,-5,-7
CCCCCNC(=O)c1cc(-c2ccc(OC)cc2)nc2cc(C(C)(C)C)nn12,8,6
CSc1ccc(NC(=O)N(Cc2ccc(OS(=O)(=O)c3ccc(F)cc3)cc2)C(C)C)cc1,-1,11
CC1CCCN(CCNC2CCCC2)C1 (stereo not drawn),5,2
COCC(=O)NS(=O)(=O)c1ccc(OCc2cccc(C)c2)cc1,8,5
O=C(CSc1nc(=O)n(CCCN2CCOCC2)c2c1CCC2)Nc1ccccc1F,0,-7
O=C(CCc1c(-c2ccc(F)cc2)[nH]c2ccc(F)cc12)NCc1ccco1,1,6
CCCc1nn(-c2cccc(C)c2)c(CCC)c1C(=O)NCCN(C)C,9,21
COc1ccc2nc(-c3ccc(Cl)c(NC(=O)C(C)Oc4cccc(F)c4)c3)cn2n1 (stereo not drawn),5,3

Remaining list, next part.
SMILES,NPYLR7 agonist,NPYLR7 agonist max-min
CN(C)N=CC=C1CCC(=Cc2ccc(C(F)(F)F)cc2)C1=O,2,1
Cc1ccc(C(=O)N2CCCC(O)(CN(C)C)CC2)c(O)c1 (stereo not drawn),-3,-5
CCN(CC)Cc1cnc2c(C(=O)NC(C)c3csc(C)n3)cnn2c1 (stereo not drawn),-1,-6
COc1cn2c(cc1=O)C(=O)N(CCNC(=O)COc1ccc(C)cc1)CC2,10,1
CCCCn1c(C2CCCCC2)nc2oc3ccccc3c(=O)c2c1=O,10,4
CCOC(=O)C1(C)CCN1C(=O)c1cc(F)ccc1C (stereo not drawn),-3,-9
O=C(N=Nc1c(O)[nH]c2ccccc12)c1cc(=O)[nH]c2ccccc12,-6,-11
O=C(OCC(=O)N1CCCCCCC1)C1CC1c1cccc(F)c1 (stereo not drawn),3,2
COCCN1CC(C(=O)NC(C)(C)c2ccc(OC)c(OC)c2)CCC1=O (stereo not drawn),4,-1
CC1Oc2ccccc2N(CC(=O)NCCSCc2ccsc2)C1=O (stereo not drawn),7,7
Cc1ccccc1CSCc1nc(C2CC2)n[nH]1,1,16
CCn1c(CNc2ccc(C)c(Cl)c2)nnc1SCC(=O)Nc1ccc([N+](=O)[O-])cc1C,2,11

Carrying on:
SMILES,NPYLR7 agonist,NPYLR7 agonist max-min
CC(O)CN1C(=O)CSC1c1ccc(Cl)c(Cl)c1 (stereo not drawn),-3,-8
Cc1cccc(NC(=O)CNC(=O)CNCc2ccco2)c1,10,9
COc1cc(COC2CN(Cc3ccc(O)cc3)CC(=O)N(C(C)C)C2)cc(OC)c1 (stereo not drawn),12,-1
O=C(Nc1cccc2cnccc12)c1ccc(Cl)cc1F,4,3
Cc1ncc(CNC(=O)NC(C)c2ccc(F)cc2Cl)s1 (stereo not drawn),12&-6,7&-6
CC(C)C(=O)N1CCN(CC(=O)NCCCN(C)c2ccccc2)CC1,8,5
CC(=O)Nc1ccc(S(=O)(=O)c2ccc(NC(C)=O)cc2)cc1,-21,-27
COCC1CCCN(C(=O)c2cc(COc3ccccc3SC)on2)C1 (stereo not drawn),13,7
O=S(=O)(Cc1ccc(Cl)cc1)c1ccc(NCCCc2ccco2)nn1,1,-2
NC(=O)CCN(C(=O)CSc1nccn1C1CC1)c1ccccc1,1,0
CC(C)N(Cc1cccc(OS(=O)(=O)c2cccc(C(F)(F)F)c2)c1)C(=O)Nc1ccccc1Br,18,23
O=C(c1cc(Cl)cc(Cl)c1)N1C[C@H](O)[C@@H](N2CCOCC2)C1,5,1

Exported with each value named: entries from further up.
> O=S(=O)(Cc1ccc(Cl)cc1)c1ccc(NCCCc2ccco2)nn1
  NPYLR7 agonist: 1
  NPYLR7 agonist max-min: -2

> NC(=O)CCN(C(=O)CSc1nccn1C1CC1)c1ccccc1
  NPYLR7 agonist: 1
  NPYLR7 agonist max-min: 0

> CC(C)N(Cc1cccc(OS(=O)(=O)c2cccc(C(F)(F)F)c2)c1)C(=O)Nc1ccccc1Br
  NPYLR7 agonist: 18
  NPYLR7 agonist max-min: 23

> O=C(c1cc(Cl)cc(Cl)c1)N1C[C@H](O)[C@@H](N2CCOCC2)C1
  NPYLR7 agonist: 5
  NPYLR7 agonist max-min: 1

Remaining list, next part
SMILES,NPYLR7 agonist,NPYLR7 agonist max-min
CCOC(=O)c1sc(NC(=O)Cn2nc(C(F)(F)F)cc2C)c(C(=O)OCC)c1C,9,8
COc1ccc(CNC(=O)c2cn(Cc3ccc(F)cc3)c(=O)s2)cc1OC,-1,-3
Cc1ccc(NC(=O)c2cc3n(n2)CCN(CC2CC2)C3=O)cc1,0,10
CCOC(=O)C(=Cc1cc(=O)c(OC)co1)C(=O)OCC,-6,-7
Cc1c(CN(C)C(=O)C2CCOC2)[nH]c2ccccc12 (stereo not drawn),-5,-7
COc1ccc(-n2cc(CN(C)CC3COCCO3)c(-c3cccc(F)c3)n2)cc1 (stereo not drawn),14,1
C=CCn1c(=O)c2c(nc3n(-c4cc(OC)ccc4OC)c(C)cn23)n(C)c1=O,-1,7
CC1Cc2c(NC(=O)Cc3ccccc3)nn(C)c2NC1=O (stereo not drawn),-12,-18
CCn1c(CC2CCN(C(=O)C3(C)CCCO3)CC2)nn(C)c1=O (stereo not drawn),12,8
CN(C)S(=O)(=O)N1CCN(C(=O)N2CCCCCC2)CC1,-7,-12
COc1cc(Br)c(OC)c(C(=O)N2CC(C)OC(C)C2)c1 (stereo not drawn),2,2
Cc1cc(F)ccc1S(=O)(=O)NCCCCN1CCOC(c2ccccc2)C1 (stereo not drawn),-9,-11

Going on with the list.
SMILES,NPYLR7 agonist,NPYLR7 agonist max-min
CCCn1cc(C(=O)NCc2c(C)noc2C)c(C)n1,3,1
CCC(C(=O)N(CC(=O)N1CCc2sccc2C1c1ccccc1C)Cc1ccco1)c1ccccc1 (stereo not drawn),-9,-12
N#CCCN(CCC#N)Cn1nc2sc3ccccc3n2c1=S,-1&3,0&4
C=CCn1c(COc2ccc(OC)cc2)n[nH]c1=S,10,8
Cc1cc(C)n(C2CCN(Cc3ccc(C#CC(C)(C)O)cc3)C2)n1 (stereo not drawn),-4,-5
Cc1ccc(-c2nc(C(=O)N3CCC4(CC3)OCCO4)cs2)o1,-2,-3
CCCNC(=O)C1(C)CCN1C(=O)Cc1ccc(-c2ccccc2)cc1 (stereo not drawn),0,27
Cc1cccc(NC(=O)Cc2ccc(Br)cc2)n1,0,3
O=S(=O)(Cc1ccccc1)N1CCn2c(nc3ccccc32)C1,4,4
COc1ccc(OCC(O)CN(Cc2ccc(F)cc2)Cc2cccn2C)cc1 (stereo not drawn),21,28
O=C(O)C1CCCN(c2c(-c3ccccc3)c3cc(Cl)ccc3[nH]c2=O)C1 (stereo not drawn),-2,-7
COc1ccnc(CN2C(=O)NC(C)(C3CCNCC3)C2=O)c1 (stereo not drawn),10,5

The results go on.
SMILES,NPYLR7 agonist,NPYLR7 agonist max-min
Cc1cccc(Nc2ccc(N3CCN(C(=O)/C=C/c4ccccc4)CC3)nn2)n1,8,3
COCc1cc(N2CCN(c3ccc(OC)cc3)CC2)nc(SCc2ccc(C(=O)NCc3ccco3)o2)n1,1,0
CCc1cc2c(CN(C)CCOc3ccc(C)cc3)cc(=O)oc2cc1O,-3,-3
Cn1ccc(C(=O)Nc2nc(Sc3ccccc3)ns2)cc1=O,0,0
O=C(CSc1nncs1)N1CCCc2c(F)ccc(F)c21,1,0
Cc1ccc(F)cc1NC(=O)c1cccc(CN(C)C(C)c2ccccn2)c1 (stereo not drawn),-6,-10
Oc1cccc(-c2nc(=S)c3c([nH]2)Oc2ccccc2C3)c1,5,3
C=CCNS(=O)(=O)c1ccccc1,4,1
COc1ccc(-c2cc(C3(CNCc4ccc(F)c(Cl)c4)CC3)ccn2)cn1,7,23
Cc1cc(C)cc(CCC(=O)N2C[C@H]3CC=CC[C@H]3C2)c1,5,3
O=C(c1ccco1)N1CCC(CCc2ccc3c(c2)OCO3)CC1,-12,4
CCOC(=O)c1cc(CC)sc1NC(=O)c1ccccc1F,-3,-3

(continued)
SMILES,NPYLR7 agonist,NPYLR7 agonist max-min
Cc1cc(C)c(CN2CCC(CO)(CCOc3ccccc3)CC2)cc1C,-3,-1
CN(Cc1ccccc1)c1cc(C(C)(C)C)nc(SCc2cccc(C(=O)O)c2)n1,13,18
CC1Cc2ccccc2N1C(=O)c1ccc(=O)n(Cc2ccc(F)cc2)n1 (stereo not drawn),3,4
Cc1n[nH]c(C)c1C(NC(=O)c1cc2c(s1)CCCCC2)C(=O)O (stereo not drawn),-2,-10
CCn1ncc(CN2CCN(C(c3ccccc3)c3ccccc3)CC2)c1C,20,17
CC1Oc2ccccc2OC1C(=O)Nc1cc(F)cc(N2CCCC2)c1 (stereo not drawn),4,3
COc1ccc(CN(C)C(=O)CN2Cc3cc(Cl)ccc3OC(C)C2)c2cccnc12 (stereo not drawn),3,-4
Cc1ccc(C)c(S(=O)(=O)Nc2cccc(C(=O)OC(C)C#N)c2)c1 (stereo not drawn),7,4
CCOC(=O)C1CCCN(C(=O)c2ccc(CSc3nc(COC)cc(N4CCCC4)n3)cc2)C1 (stereo not drawn),4,6
COc1cc(OC)cc(-c2nc3n(n2)C(c2ccccc2F)C(C(=O)Nc2cccnc2)=C(C)N3)c1 (stereo not drawn),2,0
Cc1cc(N2CCOCC2)ccc1Nc1nc(NC2CCCCC2)c2[nH]cnc2n1,6,-1
Cc1cc(N)n(CC(=O)NC(c2ccncc2)c2ccc(Cl)cc2)n1 (stereo not drawn),12,8

More results
SMILES,NPYLR7 agonist,NPYLR7 agonist max-min
CN(C/C=C/c1ccccc1)CCC(O)c1ccccc1 (stereo not drawn),-1,-4
CCc1ccc(C(=O)N2CCN(C(C(=O)NCC3CCCO3)C3CCCC3)CC2)cc1 (stereo not drawn),-25,-19
O=C1CC2(CCN(S(=O)(=O)c3ccc(OC(F)F)cc3)CC2)CN1,19,8
C=CCSc1nc(OCC)c2c(n1)OC(=N)C(C(=O)OCC)C2c1ccccc1 (stereo not drawn),-5,-11
O=C(NC1CCN(Cc2ccccc2F)CC1)c1ccc(OCC(F)(F)F)cc1,-8,-9
CC(NC(=O)c1ccc2c(c1)CC(C)N2S(C)(=O)=O)c1ccccc1Br (stereo not drawn),-3,-5
COc1ccc(Cl)cc1NC(=O)/C(C)=C/C(=O)O,2,1
CCOC(=O)C1CCCN(C(=O)c2c(C)nn(-c3cccc(C)c3)c2C)C1 (stereo not drawn),27,29
Cc1cc2cc(C(=O)N(C)CC3CCCN(CCc4ccc(F)cc4)C3)ccc2o1 (stereo not drawn),6,5
Oc1[nH]c2ccccc2c1N=Nc1nc(N2CCCCC2)nc(N2CCCCC2)n1,-4,-11
Cc1occc1C(=O)N(C)C(Cc1ccccc1F)C1CCN(C(=O)[C@H]2C[C@@H]3C=C[C@H]2C3)CC1 (stereo partly drawn),16,5
O=C1CNC(=O)CN1,-4,-7

Compound profiles, from the list above. Values in the order: NPYLR7 agonist	NPYLR7 agonist max-min
Oc1[nH]c2ccccc2c1N=Nc1nc(N2CCCCC2)nc(N2CCCCC2)n1 is entered as -4	-11
CN(C/C=C/c1ccccc1)CCC(O)c1ccccc1 (stereo not drawn) is entered as -1	-4
CC(NC(=O)c1ccc2c(c1)CC(C)N2S(C)(=O)=O)c1ccccc1Br (stereo not drawn) is entered as -3	-5
COc1ccc(Cl)cc1NC(=O)/C(C)=C/C(=O)O is entered as 2	1

More records follow:
SMILES,NPYLR7 agonist,NPYLR7 agonist max-min
COc1cccc(-c2cn[nH]c2C2CCN(C(=O)C3CC3(F)F)CC2)c1 (stereo not drawn),-3,-3
CCn1nnc2cc(C(=O)N3CC(C(N)=O)Oc4ccccc43)ccc21 (stereo not drawn),-4,-6
Cc1ccc2[nH]cc(C3CCN(C(=O)c4cc(C(C)(C)C)nn4C)CC3)c2c1,14,16
NS(=O)(=O)c1ccc(NCc2nnc3ccccn23)nc1,18,11
O=S(=O)(c1ccc(F)c(Cl)c1)N1CCNCC1,3,-1
CCc1nc2ccc(C(=O)N(CC)CCN(C)C)cn2c1N(CC)C(=O)NCCc1ccccc1,-4,-18
COCCCn1c(=N)c(C#N)cc2c(=O)n3ccccc3nc21,1,-2
CC1Cc2cc(S(N)(=O)=O)ccc2N1Cc1cc(Cl)cc2c1OCOC2 (stereo not drawn),2,1

Screening results as filed in PubChem.

A portion of the library. The share of hits here may be higher or lower than overall.
